# Vaccinia mCherry: inhibitors of vaccinia virus infection (mCherry reporter signal); Vaccinia virus mCherry reporter infection, fluorescence; about a quarter of the inactives have no number; Potency, µM (titrated, usually from 36.5 µM), for the others: top-dose activity change, negative = inhibition, actives largely listed as inhibitors; 310,000 tested, 0.63% active; active = well fitted inhibition curve with a large enough effect; inconclusive = small, poorly fitted or top-dose-only effect; inactive = no such curve, though single readings can be large or run the other way; tested in A549 cells; further: nearly all actives have a fitted effect of over 35% in size; inactives centre near -10
# VACV Venus inh: inhibitors of vaccinia virus (Venus reporter) | Vaccinia virus Venus reporter expression, fluorescence | Potency, µM (doses to about 36.5 µM), for the others: at the top dose activity change, negative = inhibition, actives largely listed as inhibitors | 330,000 tested, 0.46% active | AID 720580; active means well fitted inhibition curve with a large enough effect; inconclusive means small, poorly fitted or top-dose-only effect; inactive means no such curve, though single readings can be large or run the other way; tested in A549 cells; further: nearly all actives have a fitted effect of over 30% in size; inactives centre near -10
# Active calls of the source: *; i = inactive; ? = inconclusive; . = no result given; & = joins results of further samples; [ ] = another dose, or the depositor's remark. On the % scale 0 is the no-effect control and ±100 the full control effect; potency means the concentration at half of the fitted maximal effect.
SMILES,Vaccinia mCherry,VACV Venus inh
CSc1ccc(NC(=O)C2(C)CCN2C(=O)c2cc(C)n(C)n2)cc1 (stereo not drawn),1%,-1%
COc1ccc(C(C)(O)c2nc(-c3ccccc3C)cs2)cc1 (stereo not drawn),-6%,-21%
COc1ccc(C(=O)NCCONC(=O)c2ccc(OC)cc2)cc1,-11%,2%
O=[N+]([O-])c1cc(/C=N/Nc2nc(N3CCCCC3)nc(N3CCCCC3)n2)ccc1O,-9%,1%
CCCSc1nnc(CNC(=O)C23CC4CC(CC(C4)C2)C3)n1Cc1ccccc1,-30%,-20%
COC(=O)[C@]1(C)N[C@H](CN(C)C(=O)COc2ccccc2)[C@@H]2C(=O)N(C)C(=O)[C@@H]21,-8%,-1%
COc1ccc(CCNC(=O)c2ccc(S(=O)(=O)N(C)c3ccccc3)cc2)cc1OC,i,-11%
COc1cc2cc(Oc3ccc4ccc(=O)oc4c3)c(=O)oc2cc1OC(=O)/C=C/c1ccccc1,i,-9%
CC(=O)c1ccc(NC(=O)CSc2nnc(NC(=O)CN3CCOCC3)s2)cc1,.,-8%
CN(C)C(=O)N1CCC(C(=O)NCc2ccccc2)CC1,i,-6%
CCC(=O)N1N=C2C3CCN(CC3)C2C1c1ccccc1 (stereo not drawn),-15%,-4%
Cc1cccc(C)c1NC(=O)C(c1ccccc1)N1CCN(c2ccc(C(F)(F)F)cn2)CC1 (stereo not drawn),10%,2%
O=C(CSc1nnc(-c2ccc(F)cc2)c2ccccc12)Nc1cccc(Cl)c1,i,-8%
COC(=O)C[C@H]1CC[C@@H]2[C@H](COC[C@H](O)CN2S(=O)(=O)c2ccccc2OC)O1,-9%,-13%
Cc1cc(=O)n(C(C)C(=O)N2CCCc3ccccc32)c2c1c(C)nn2-c1ccccc1 (stereo not drawn),-21%,-14%
CC(=O)Nc1ccc2c(CN3C(=O)NC(C)(c4ccc(C)cc4)C3=O)cc(=O)oc2c1 (stereo not drawn),-24%,-14%
CCCc1cc(=O)oc2cc(C)c3c(-c4ccccc4)coc3c12,-4%,-1%
CCOC(=O)c1c(C)n(C)c2c(C)cc(O)c(OC(=O)CC)c12,.,-14%
Fc1cccc(-c2nnn3c2nc(NC2CCCCC2)c2ccccc23)c1,-11%,-8%
NS(=O)(=O)c1ccc(CCNC(=O)c2ccc3nc(CCc4ccccc4)oc3c2)cc1,-5%,-6%

# The final 2 entries of the section above lead into the next:
SMILES,Vaccinia mCherry,VACV Venus inh
Fc1cccc(-c2nnn3c2nc(NC2CCCCC2)c2ccccc23)c1,-11%,-8%
NS(=O)(=O)c1ccc(CCNC(=O)c2ccc3nc(CCc4ccccc4)oc3c2)cc1,-5%,-6%
CCOC1=C2[C@H](c3ccccc3)N(S(=O)(=O)c3ccc(C)cc3)C(C(C)(C)C)[C@H]2n2c(=O)n(-c3ccccc3)c(=O)n2C1 (stereo partly drawn),2%,-22%
CC1(C)CC(NC(=O)c2ccc(Cl)cc2)CC(C)(C)N1,i,-7%
CCc1nc2nc(C)c(NS(=O)(=O)c3ccc(Cl)cc3)c(=O)n2[nH]1,2%,-9%
CCOc1ccccc1Nc1ccc2cc(S(=O)(=O)N3CCCCC3)ccc2n1,?,-29%
CC1CCCN(CC(=O)N2CCCc3ccccc32)C1 (stereo not drawn),-4%,2%
Cc1ccc(CSc2nc(=O)c3c(C)cc(C)nc3n2C2CC2)cc1,i,2%
Cc1c(N(C(=O)c2cc(=O)[nH]c3ccccc23)C(C)C)c(=O)n(-c2ccccc2)n1C,-4%,-3%
c1ccc(-c2ccc(OCCCNC3CCCC3)cc2)cc1,?,-19%
Cc1cc(C)c(NC(=O)COc2ccccc2C(=O)Nc2ccc3c(c2)oc2ccccc23)c(C)c1,-11%,-1%
Cc1ccc(NC(=O)Nc2ccc(F)c(Cl)c2)cc1,-29%,-4%
CC1Cc2ccccc2N1CC(=O)NC(=O)NCc1ccccc1 (stereo not drawn),?,4%
CCc1ccc(NC(=O)CSc2nc(-c3cccc(OC)c3)nc3c2Cc2c(CO)cnc(C)c2O3)cc1,-11%,-12%
Cc1cc(-c2ccccc2)c2c(=O)[nH][nH]c2n1,-13%,-11%
CN(C)S(=O)(=O)c1ccc(Cl)c(NC(=O)COC(=O)c2ccc(O)cc2)c1,-1%,-6%
COc1ccc(OCC(=O)N(Cc2cccs2)c2ccc(OC)cc2)cc1,-6%,-4%
CCOC(=O)c1c(C)n(-c2ccccc2)c2ccc(OC(=O)c3cccc(Cl)c3)cc12,-7%,-1%
COc1ccc(-n2c(N)c(C(=O)NCc3ccco3)sc2=S)cc1,-12%,-10%
Cn1nc(-c2ccc(C(=O)Nc3ccc(F)cc3)cc2)c2ccccc2c1=O,0%&-22%,-5%&-14%
COc1ccc(S(=O)(=O)N2CCC(C(=O)NCCN3CCOCC3)CC2)cc1,-12%,-14%
CCc1ccc(S(=O)(=O)c2cn(Cc3ccccc3F)c3cc(OC)c(OC)cc3c2=O)cc1,-13%,-11%
CC(C)Cc1ccc(CN2C(C(C)C)C(=O)N(Cc3cn(CCC4OCCO4)nn3)CCS2(=O)=O)cc1 (stereo not drawn),-3%,-21%
COC(=O)c1ccccc1NC(=S)NC(=O)c1ccccc1F,-18%,-4%
CCOc1ccc2nc(Cl)c(C3CC(c4ccc(C)cc4)=NN3C(=O)CCC(=O)O)cc2c1 (stereo not drawn),4%,0%
Cc1ccc(CN2C3CCCC2CC(NC(=S)NCc2ccccc2)C3)cc1 (stereo not drawn),?,-21%
O=c1cc(CNc2cc(C(F)(F)F)cc(C(F)(F)F)c2)nc2sccn12,-21%,?
CCOC(=O)C1=C(C)NC(C)=C(C(=O)OCC)C1c1cccc([N+](=O)[O-])c1,?,?
CCOc1ccc(NC(=O)CN(C)C(=O)c2c(-c3ccccc3Cl)noc2C)cc1OCC,-32%,-19%
CSC1=NCCN1C(=O)c1ccc(S(=O)(=O)N2CCCC2)cc1,21%,0%
Oc1cccc(C(=S)N2CCN(Cc3ccccc3)CC2)c1,-11%,-12%
c1ccc(Cn2nnnc2C(c2cccnc2)N2CCN(C3CCCCC3)CC2)cc1 (stereo not drawn),i,0%
CCCCN(C(=O)CSc1nncn1-c1ccccc1OC)c1c(N)n(Cc2ccccc2)c(=O)[nH]c1=O,i,0%
Cc1cc(C(=O)Nc2cnc3ccccc3c2)ccc1[N+](=O)[O-],i,-8%
Cc1ccc(OCCNC(=O)c2ccc(NC(=O)CC3SC(N4CCCC4)=NC3=O)cc2)cc1 (stereo not drawn),-18%,-14%
NC(=O)c1nn2c(C(F)(F)F)cc(-c3ccc(Br)cc3)nc2c1Cl,-21%,-23%
CCOC(=O)c1cc(C(=O)NCc2ccc(Cl)cc2Cl)nn1C,-17%,-18%
COCC1CCN(Cc2cn(C)nc2-c2cccc(Cl)c2)C1 (stereo not drawn),-10%,-6%
COc1ccc(OC)c(NC(=O)C2CCCCC2)c1,-24%,-9%
C=CCN1CC[C@@]2(C)c3cc(O)ccc3CC1[C@@H]2C,-9%,-15%
O=C(CSc1nc2c(oc3ccccc32)c(=O)[nH]1)Nc1cccc(Cl)c1,-14%,-15%
CC(O)(c1ccccc1)c1nc(-c2ccccc2)cs1 (stereo not drawn),3%,0%

# Some values from above.
# Result for `COCC1CCN(Cc2cn(C)nc2-c2cccc(Cl)c2)C1` (stereo not drawn) in Vaccinia mCherry: -10%
# Result for `O=C(CSc1nc2c(oc3ccccc32)c(=O)[nH]1)Nc1cccc(Cl)c1` in Vaccinia mCherry: -14%
# Result for `CC(O)(c1ccccc1)c1nc(-c2ccccc2)cs1` (stereo not drawn) in Vaccinia mCherry: 3%
# Result for `CCCCN(C(=O)CSc1nncn1-c1ccccc1OC)c1c(N)n(Cc2ccccc2)c(=O)[nH]c1=O` in VACV Venus inh: 0%
# Result for `CCOC(=O)c1cc(C(=O)NCc2ccc(Cl)cc2Cl)nn1C` in Vaccinia mCherry: -17%
# Result for `NC(=O)c1nn2c(C(F)(F)F)cc(-c3ccc(Br)cc3)nc2c1Cl` in VACV Venus inh: -23%
# Result for `COc1ccc(OC)c(NC(=O)C2CCCCC2)c1` in Vaccinia mCherry: -24%

# Other compounds follow.
SMILES,Vaccinia mCherry,VACV Venus inh
CC(=O)N1CCc2cc(S(=O)(=O)CCC(=O)NCc3ccc4c(c3)OCO4)ccc21,-7%,-3%
Cc1cc(=O)[nH]c(SCC(=O)c2ccc(C(C)C)cc2)n1,.,-11%
OC(c1ccc(Cl)c(F)c1)c1ncc(-c2ccc(Cl)cc2)[nH]1 (stereo not drawn),0%,-15%
CC1=C(SCCC#N)S/C(=C2\SC(C)=C(SCCC#N)S2)S1,1%,-1%
CCc1nc(N[C@H](C(=O)O)C(C)C)c2oc3ccccc3c2n1,i,-14%
Cc1ccc(N2C(=O)NC(=O)C(CCc3ccccn3)(Cc3ccc(F)cc3)C2=O)cc1 (stereo not drawn),0%,2%
CCN(CC)S(=O)(=O)c1cccc(C(=O)N[C@H](C(=O)Nc2nc3ccc(F)cc3s2)C(C)C)c1,?,?
COc1ccc2c(c1)[nH]c(=O)c1sc3ccccc3c12,.,-15%
Cc1cc2nn(-c3ccccc3)nc2cc1NC(=O)c1cccs1,-22%,-15%
COc1ccc(CN2CCC(C)(Oc3cccc(F)c3)C2)c2ccccc12 (stereo not drawn),i,-9%
CC(=O)C1=NOC(CNc2ncc(C(F)(F)F)cc2Cl)C1 (stereo not drawn),i,-1%
O=C(N[C@@H]1C/C=C\C[C@H](CC(=O)N(CCO)Cc2ccccc2)C(=O)N[C@@H](Cc2c[nH]c3ccccc23)COC1=O)OCC1c2ccccc2-c2ccccc21,i,0%
CCOC(=O)CSc1[nH]c2cc(OC)ccc2c1[N+](=O)[O-],0%,-10%
CCOc1ccc(C(=O)Nc2cc(S(=O)(=O)Nc3ccccc3Cl)ccc2N2CCOCC2)cc1,-1%,-18%
CC1CC(C)CN(C(=O)c2ccc(N3CC4CC(C3)c3cccc(=O)n3C4)c([N+](=O)[O-])c2)C1 (stereo not drawn),-13%,-5%
COc1ccccc1-c1csc(C(O)c2ccc(F)c(F)c2)n1 (stereo not drawn),-1%,-15%
O=C1NC(=O)N(Cc2ccc(F)cc2)C(=O)/C1=C\c1ccc([N+](=O)[O-])s1,i,47%[activator]
COc1ccc(C(C)=O)cc1Cn1c(C)c(C(=O)NCCC#N)sc1=O,4%,-5%
C=CCN1C(=O)c2ccc(C(=O)N(CCOC)c3c(N)n(CCCC)c(=O)[nH]c3=O)cc2C1=O,i,-7%
CCN1CCN(C(=O)CCNC(=O)Cn2cnc3ccccc3c2=O)CC1,-2%,-6%
O=S(=O)(c1ccc(Br)cc1)N1CCC(c2nc3ccccc3[nH]2)CC1,-23%,-22%
Cc1cccc(C(=O)OCC(=O)NCc2ccco2)c1,-17%,-13%
Cc1cn([C@H]2C[C@H](O)[C@@H](CNC(=O)[C@H]3CCC(=O)N3)O2)c(=O)[nH]c1=O,-13%,-7%
COc1ccc(N2CCN(C(=O)c3cnc(SC)nc3C)CC2)cc1,-8%,-10%
Cn1cnnc1SCC(=O)c1ccc2c(c1)OCO2,.,-7%
CCCCN(C)c1c(C)nc2ccc(C(=O)N(C)CCN(C)C)cn12,i,-9%
O=S1(=O)CC(N2CCC(Cc3ccccc3)CC2)CN1CCc1ccccc1 (stereo not drawn),i,-17%
CC(C)(C)c1ccc(C2=CC(c3ccccc3)n3ncnc3N2)cc1 (stereo not drawn),9%,-5%
CCCN(CC1CC1)C(=O)CSc1ncnc2sc(C)c(C)c12,-11%,-16%
CCOc1ccccc1NC(=O)/C=C/c1ccc(S(=O)(=O)N2CCOCC2)cc1,-14%,-17%

# 4 entries from above, set out differently.
SMILES	Vaccinia mCherry	VACV Venus inh
O=S(=O)(c1ccc(Br)cc1)N1CCC(c2nc3ccccc3[nH]2)CC1	-23%	-22%
Cc1cccc(C(=O)OCC(=O)NCc2ccco2)c1	-17%	-13%
Cc1cn([C@H]2C[C@H](O)[C@@H](CNC(=O)[C@H]3CCC(=O)N3)O2)c(=O)[nH]c1=O	-13%	-7%
COc1ccc(N2CCN(C(=O)c3cnc(SC)nc3C)CC2)cc1	-8%	-10%

# (list continues)
SMILES,Vaccinia mCherry,VACV Venus inh
Cc1ccc(C)c(NC(=O)CCc2c(C)nn(-c3ccc(N4CCCCC4)nn3)c2C)c1,i,-12%
CCOc1ccc(C(=O)Nc2ccc(S(=O)(=O)Nc3nc(C)cc(C)n3)cc2)cc1OC,-6%,6%
CC1CCCCN1C(=O)Cn1nnc(-c2cccnc2)n1 (stereo not drawn),-14%,-10%
CCOC(=O)C1CCN(C(=O)c2ccccc2NC(=O)c2ccc(Cl)cc2)CC1,-11%,-13%
Nn1cnc2scc(-c3ccco3)c2c1=O,i,-10%
Cc1onc(-c2ccccc2Cl)c1C(=O)Nc1ccc(S(=O)(=O)NCC2CCCO2)cc1 (stereo not drawn),-14%,-8%
CN(C)c1ccc(NC(=O)CN2CCN(CC(=O)Nc3ccc(Br)cc3)CC2)cc1,-10%,-12%
O=C(CC(O)(c1ccccc1)c1ccccc1)Nc1ccccn1,-6%,-8%
c1cc(-c2nsc(-c3ccncc3)n2)ccn1,-1%,12%
CCOC(=O)C1(CCCc2ccccc2)CCN(C(=O)CSC)CC1,0%,-14%
CC1(C)OC2CC3C4CC(F)C5=CC(=O)CC[C@@]5(C)C4C(O)C[C@@]3(C)[C@]2(C(=O)CO)O1 (stereo partly drawn),i,-15%
CSc1cccc(NC(=O)Cn2ncn3c(cc4ccccc43)c2=O)c1,-19%,-16%
Cc1onc(-c2ccccc2)c1C(=O)Nc1cccc(C#N)c1,19%,-7%
COc1cc(C=Cc2nnc3c4ccccc4cnn23)cc(OC)c1OC,i,-9%
O=C(COc1ccccc1)Nc1cccc(-c2nc3ccccc3[nH]2)c1,4%,?
Cc1ccc(C)c(NC(=O)CSc2c(C)n[nH]c2C)c1,6%,1%
O=C(NNC(=O)c1ccccc1Br)c1ccc(Cl)cc1,-8%,-9%
